Bioassay records deposited in PubChem by National Center for Advancing Translational Sciences (NCATS).
Sfp PPTase inh: qHTS Assay for Inhibitors of Bacillus subtilis Sfp phosphopantetheinyl transferase (PPTase); 4'-phosphopantetheinyl transferase ffp (Bacillus subtilis), Q9F4F7; 3.5% of 310,000 active; Biochemical Sfp PPTase activity, qHTS; Potency, µM, for the others: max response, negative = inhibition, usual class: inhibitors; active = well fitted inhibition curve with a large enough effect; inconclusive = small, poorly fitted or top-dose-only effect, or another doubt; inactive = no such curve, though single readings can be large or run the other way;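 also: the enzyme is Sfp with the accession as filed and its product quenches rhodamine fluorescence; potency is read from the fitted curve at half-maximal effect; 0% = enzyme reaction without inhibitor and -100% = no enzyme wells; top concentration of the series not given in the record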
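Buffer: 50 mM Hepes-Na pH 7.6, 10 mM MgCl2, 0.01% Nonidet P-40, 0.01% BSA. Enzyme 15 nM, pre-exposed to compound 15 min; substrates then added and fluorescence change tracked over 30 min.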
Menin MLL FP FL: qHTS Assay for Inhibitors Targeting the Menin-MLL Interaction in MLL Related Leukemias: Competition With Fluorescein Labeled MLL-derived Peptide | Fluorescence polarization, fluorescein-MLL peptide displacement from menin | FP activity change, % at 61.4 µM | 290,000 tested, under 10 active | AID 1766, 2009; inconclusive = falling polarisation curve, or a change in total fluorescence; inactive = total fluorescence flat and polarisation flat or rising; no compound was filed as active; the % refers to the polarisation; negative = inhibition;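 also: % of control where 0% means no effect; inhibitors lower the polarisation; unlabelled MLL peptide was the positive control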
PINK1 modulator: A Quantitative High throughput Screen to Identify Chemical Modulators of PINK1 Expression; PINK1 immunofluorescence, high-content cytometry, 24 h; Potency, µM (titrated, usually from 76.6 µM), for inactives: at the highest dose activation (PINK1 increase), hits mostly activators; 0.2% of 410,000 active; active = well fitted activation curve with a large enough effect; inconclusive = small, poorly fitted or top-dose-only effect; inactive = flat fitted curve, though single readings scatter; cell line not stated here;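 also: potency is read from the fitted curve at half-maximal effect; % of control where 0% means no effect; nearly all actives have a fitted effect of over 65% in size; a mitochondrial uncoupler was the plate control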
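Cells are seeded, rested 12 hours, then given compound at five concentrations or DMSO for 24 hours. After fixation, blocking and antibody staining, PINK1 amount and mitochondrial localization are scored; CCCP serves as control.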
TRPML1 ag: qHTS for Agonists of the Human Mucolipin Transient Receptor Potential 1 (TRPML1); Mucolipin-1 (Homo sapiens), Q9GZU1; TRPML1-expressing cells, Ca2+ dye fluorescence, FDSS; host cell line not named in the record; reference of the full effect not given here; activation, % (no concentration beside the values); 0.12% of 410,000 active; AID 624414, 2012; in the data active = activation above about 50%; inconclusive = about 30% to 50%; inactive = below about 30%; also: 0% is about no effect; the text of the record puts the active cut at 80%
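Calcium fluorescence on an FDSS kinetic reader gave the read-out. Tet-induced TRPML1-DL cells were plated overnight, dye-loaded (Ca8 with quencher, 45-90 min, room temperature, dark), then read 110 s after compound addition, and again 110 s after 4uM final 54-4 (EC80).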
TRPML1 inh: qHTS for Inhibitors of the Human Mucolipin Transient Receptor Potential 1 (TRPML1); activity change, negative = inhibition, % (test concentration not listed); 0.02% of 390,000 active; Mucolipin-1 (Homo sapiens), Q9GZU1; AID 624415, 2012; TRPML1-inducible cells, Ca2+ dye fluorescence, FDSS; active compounds read low; inhibition of EC80 agonist-evoked calcium signal; in the data active means activity change below about -50%; inconclusive means about -30% to -50%; inactive means above about -30%;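 also: stimulus is agonist 54-4 at its EC80 concentration; % is scaled to controls: 0 for no effect and ±100 for the full control effect; compound concentration not given in the record; the text of the record puts the active cut at -80%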
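Tet-induced TRPML1-DL cells loaded with Ca8 no-wash calcium dye were read kinetically on FDSS. Compound addition was followed by EC80 agonist 54-4 (4 uM final); inhibition was read over 110 s.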
TRPV1 potentiator: HTS Assay for Compounds that Act as Potentiators of the Vanilloid Receptor 1; 0.02% of 320,000 active; Transient receptor potential cation channel subfamily V member 1 (Homo sapiens), Q8NER1; TRPV1-expressing cells, Fluo-8 calcium influx, capsaicin EC20 potentiation; host cell line not named in the record; control for the full effect not named in the record; potentiation, % at 8.33 µM; active means potentiation above 80%; inconclusive means 30% to 80%; inactive means below 30%; also: 0% is about no effect
Target sequence (Q8NER1 whole entry, looked up): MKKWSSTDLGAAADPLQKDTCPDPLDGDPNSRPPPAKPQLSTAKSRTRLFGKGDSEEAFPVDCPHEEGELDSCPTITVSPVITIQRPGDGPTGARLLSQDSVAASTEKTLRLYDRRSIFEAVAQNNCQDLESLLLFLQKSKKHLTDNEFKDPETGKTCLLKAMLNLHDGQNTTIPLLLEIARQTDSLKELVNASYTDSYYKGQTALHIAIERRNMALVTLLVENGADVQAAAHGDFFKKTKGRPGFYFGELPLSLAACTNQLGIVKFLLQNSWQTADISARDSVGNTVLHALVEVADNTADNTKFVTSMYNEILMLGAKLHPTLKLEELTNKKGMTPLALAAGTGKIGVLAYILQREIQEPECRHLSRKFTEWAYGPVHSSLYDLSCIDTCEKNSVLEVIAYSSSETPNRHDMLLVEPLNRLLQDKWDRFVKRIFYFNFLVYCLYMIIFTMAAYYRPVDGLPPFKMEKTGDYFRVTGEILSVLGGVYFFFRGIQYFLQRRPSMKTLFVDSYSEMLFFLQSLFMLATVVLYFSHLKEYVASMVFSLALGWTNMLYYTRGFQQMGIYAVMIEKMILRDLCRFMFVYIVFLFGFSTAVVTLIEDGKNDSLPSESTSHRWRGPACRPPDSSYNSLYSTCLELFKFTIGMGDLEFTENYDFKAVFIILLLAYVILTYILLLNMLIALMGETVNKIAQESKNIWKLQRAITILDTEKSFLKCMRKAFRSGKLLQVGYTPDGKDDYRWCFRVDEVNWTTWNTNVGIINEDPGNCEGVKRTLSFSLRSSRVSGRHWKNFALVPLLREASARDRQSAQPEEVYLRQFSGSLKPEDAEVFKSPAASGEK
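Fluo-8 calcium influx in TRPV1-expressing cells, kinetic read (ex 480/em 520 nm). Compound added and read 3 min for agonist activity, followed by capsaicin at EC20 final and 2 min further read for enhancement.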
ClpP mod: qHTS Assay for Activators of ClpP; 1.9% of 340,000 active; Potency, µM (top dose mostly 57.5 µM), for inactives: top-dose activity change, negative = active; purified B. subtilis ClpP, FRET peptide cleavage, 20 min; active = well fitted falling curve with a large enough effect; inconclusive = small, poorly fitted or top-dose-only effect; inactive = no such curve, though single readings can be large or run the other way; also: potency is read from the fitted curve at half-maximal effect; the source files actives as falling curves though it sought activators and does not explain the sign; nearly all actives have a fitted effect of over 65% in size; many hits overshoot -100%
Target sequence (P80244 whole entry, looked up): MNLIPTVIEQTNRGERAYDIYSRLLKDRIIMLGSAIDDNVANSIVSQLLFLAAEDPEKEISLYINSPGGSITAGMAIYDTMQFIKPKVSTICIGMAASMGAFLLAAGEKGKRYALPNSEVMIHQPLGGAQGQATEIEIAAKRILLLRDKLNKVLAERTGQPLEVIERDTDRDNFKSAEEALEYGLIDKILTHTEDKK
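ClpP 10 microg/mL final, pH 8 Tris/KCl buffer with BSA, glycerol, Tween-20; compound pinned in; FRET-FV substrate; RT 20 min; Ex320/Em430; ΔFRET vs ADEP 5.8 microM, DMSO, no enzyme.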
* hit, by the source's call; ? = inconclusive; / = no result given; [ ] = remark or other dose. Compounds as they come; about 4.4% have a hit in one of these screens.

SMILES	Sfp PPTase inh	Menin MLL FP FL	PINK1 modulator	TRPML1 ag	TRPML1 inh	TRPV1 potentiator	ClpP mod
COc1ccc(NC(=O)C2CCN(C(=O)Cc3ccccc3)CC2)c(OC)c1	9%	-3.8	-0.7%	1.3	-7	4	/
COc1ccc(OC)c(CN2CCN(CCc3ccccc3)C(CCO)C2)c1 (configuration not stated)	10%	-1.2	0.7%	-1.0	-9	4	/
Cc1cccc(C(=O)N(C(=O)c2cccc(C)c2)N(C)C)c1	/	/	0.4%	-0.2	-14	/	/
O=c1cc(CSc2ccc(Cl)cc2)nc(-c2ccccn2)[nH]1	8%	0.3	7.5%	-0.6	4	?	-0.4%
Cc1ccc(NC(=O)CCn2c(=O)c3cccn3c3ccccc32)cc1Cl	/	/	1.8%	4.9	2	/	8.8%
N#CCC(=O)Nc1ccc(C(=O)NCCC(c2ccccc2)c2ccccc2)cc1	0%	15	2.4%	0.1	1	1	/
COc1ccc(Nc2cc(C(=O)NCCCN(C)C3CCCCC3)c3ccccc3n2)c(OC)c1	/	/	0.7%	1.1	-2	/	-12%
Cc1cccnc1C1=NOC(Cc2ccccc2)C(=O)N1CCOc1ccc(F)cc1 (configuration not stated)	/	/	0.1%	0.8	/	/	-1.7%
CCc1nnc(NC(=O)CSc2sc3c(O)cc(=O)[nH]c3c2C#N)s1	79µM*	20	-1.5%	0.7	5	15	/
CC(=O)Nc1ccc(NC(=O)c2ccccc2CC[N+](=O)[O-])cc1	11%	-0.4	0.2%	-0.3	-2	10	2.2%
CC(=O)N1c2ccc(S(=O)(=O)N3CCCCC3)cc2CC1C(=O)Nc1ccc(F)cc1C (configuration not stated)	15%	/	0.1%	-0.8	-4	5	-1.7%
Cc1ccc(S(=O)(=O)CC(=O)Nc2cc(C)on2)cc1	11%	-13	-0.8%	-0.1	-8	-3	/
COc1ccc(NC(=O)c2c(NC(=O)CNCc3ccco3)sc3c2CCC3)cc1	2%	5.5	6.5%	0.6	26	0	-29%
CCOCCOC(=O)C(C)Oc1ccc(Oc2nc(Cl)ccc2Cl)cc1 (configuration not stated)	-8%	4.4	1.1%	3.8	15	-9	1.8%
Cc1ccccc1OCC(=O)Nc1nnc(-c2ccncc2)s1	-8%	-0.1	-1.6%	-1.1	-13	5	/
CCOc1ccccc1CNC(=O)C1CCN(S(=O)(=O)c2c(C)noc2/C=C/c2ccc(C)cc2)CC1	/	/	-0.1%	1.7	6	/	?
CCC1C(=O)N=C(SCC(=O)Nc2ccccc2)NC1=O (configuration not stated)	12%	4.4	1.7%	-0.2	-5	3	-1.0%
Cc1ccc(S(=O)(=O)N(C)C)cc1NC(=S)NC1CCCC(C)C1C (configuration not stated)	3%	0.7	4.9%	0.5	26	6	0.8%
CC(C)c1ccc(-c2noc(SCC(=O)N3CCCCC3)n2)cc1	/	/	0.0%	2.6	0	/	1.3%
CCn1cc(C(=O)NCCCN2CC(C)CC(C)C2)c2cc(OC)c(OC)cc2c1=O (configuration not stated)	6%	-2.2	-3.7%	-0.3	-14	?	?
O=C(O)c1ccc2c(c1)C(=O)N(c1cccc(-c3nc4ccccc4s3)c1)C2=O	-1%	-4.5	-0.6%	-0.4	-2	5	/
CCN(CC)CCOc1ccc(Br)cc1	-20%	-1.1	-1.1%[38.3 µM]	0.6	-1	?	-2.3%
O=[N+]([O-])c1ccc(N2CCOCC2)cc1SCc1ccco1	-19%	6.0	0.7%	-0.1	10	-18	1.0%
COc1ccc(C2C(C(=O)Nc3cccnc3)=C(C)Nc3nc(-c4ccco4)nn32)cc1 (configuration not stated)	13%	2.6	0.5%	0.0	9	9	-6.4%
CCOC(=O)Nc1sc2nc(C)cc(C)c2c1-n1cccc1	-1%	1.9	5.9%	1.4	-2	24	-3.1%
Cc1ccc(OCCNC(=O)CCNS(=O)(=O)c2ccc(C)cc2)cc1	/	/	-0.5%	0.1	-14	5	-2.8%
CN1CCN(C(=O)CCc2nnc3ccc(N4CCC5(CC4)OCCO5)nn23)CC1	12%	/	-0.2%	0.0	42	12	-1.8%
Cc1ccc(C)c(N2CCN(c3nc4ccc(C(=O)c5ccccc5)cc4n4cnnc34)CC2)c1	/	/	3.3%	-0.5	16	/	-0.4%
CC(=O)Oc1cccc(N2C(=O)C3CC=C(Cl)CC3C2=O)c1 (configuration not stated)	14%	-1.0	-2.1%	-0.7	2	3	-1.5%
CS(=O)(=O)c1ncc(Cl)c(C(=O)Nc2c(C(=O)Nc3ccccc3)oc3ccccc23)n1	/	/	0.7%	1.0	2	/	0.6%
CCOC(=O)CNC(=O)C1CCC(CNS(=O)(=O)c2cccc3nsnc23)CC1 (configuration not stated)	1%	/	2.0%	0.5	-1	3	/
COc1ccc(C(c2sc3ncnn3c2O)N2CCN(c3ccccc3F)CC2)cc1OC (configuration not stated)	12%	3.6	0.8%	0.3	14	12	-1.0%
O=C1CC(c2ccc(Cl)cc2)Sc2nc(-c3ccc(F)cc3)nn21 (configuration not stated)	/	/	1.5%	-0.4	7	/	-0.1%
COc1ccc(OC)c(N2C(N)=NC(N)=NC23CCCC3)c1	15%	1.6	1.0%	-0.8	-8	-2	0.3%
Cc1ccc(C(=O)COC(=O)C(C)N2C(=O)C3C4CCC(C4)C3C2=O)cc1 (configuration not stated)	9%	2.3	0.8%	-0.6	7	-15	1.6%
COC(=O)c1cc2sccc2n1CC(=O)Nc1ccc(OC)c(OC)c1OC	17%	-1.0	0.4%[38.3 µM]	0.6	0	-12	1.1%
CC1CCN(C(=O)c2ccc(CSc3nc4ccncc4n3Cc3ccc(F)cc3)cc2)CC1	-3%	-6.3	1.1%	0.7	2	8	-6.1%
CC(=O)N1CCN=C1SCc1ccc(C(F)(F)F)cc1	15%	/	-0.7%	0.2	0	-30	-0.8%
Fc1ccccc1N1CCN(c2cnc3ccccc3n2)CC1	-8%	-0.1	2.5%	-1.0	-18	-14	-2.8%
O=C(Cc1ccc(Cl)cc1)Nc1ccc2oc(-c3ccncc3)nc2c1	11%	2.5	-0.6%	4.4	55	-13	200%
COc1ccc(/C=C/c2nccc3c2[nH]c2ccccc23)cc1	/	/	-0.9%	0.1	/	/	4.5%
C[C@H]1CCCCO[C@H](CN(C)Cc2ccncc2)[C@@H](C)CN([C@@H](C)CO)C(=O)c2cc(NS(=O)(=O)c3ccccc3)ccc2O1	/	/	-1.4%	-0.5	18	/	1.0%
Cc1ccc(NC(=S)NCc2ccco2)c(C)c1	19%	1.9	13%	0.5	18	1	/
O=C(Nc1cc(S(=O)(=O)N2CCCCC2)ccc1N1CCCCC1)C1CC1	1%	4.1	1.8%	1.5	40	-9	0.4%
CNS(=O)(=O)c1cccc(C(=O)OCC(=O)Nc2ccccc2F)c1	15%	-0.9	-0.1%	-0.3	35	6	/
CCc1cc2c(=O)c(-c3cnn(-c4ccccc4)c3)c(C)oc2cc1OCC(=O)Nc1ccc(F)c(F)c1	?	3.7	14%	0.6	-9	6	0.3%
COc1cc(NC(=S)N2CCCCC2C)c(OC)cc1Cl (configuration not stated)	?	1.3	0.1%	0.5	10	3	-2.1%
CC(=O)c1sc2nc(=O)c(C)nn2c1C	5%	0.3	2.7%[38.3 µM]	0.6	-1	-7	-16%
Cc1c(CCC(=O)N[C@@H](CCCNC(N)=O)C(=O)O)c(=O)oc2cc3oc4c(c3cc12)CCCC4	1%	1.7	-1.2%	-0.3	31	-2	/
CCOc1ccc(CCNC(=O)CN(C)S(=O)(=O)c2cccs2)cc1OCC	/	/	-1.8%	-0.6	13	5	-3.6%
C=CCOC(=O)C1=C[C@H](c2ccc(C(F)(F)F)cc2)C[C@H](OCCCCO)O1	/	/	0.9%	-0.1	-12	/	0.7%
Cc1cccc(NC(=O)C2CCN(S(=O)(=O)c3ccc4c(c3)OCCCO4)CC2)n1	/	/	1.3%	-0.4	-12	25	/
CC(C)N(Cc1nc(-c2ccc(Cl)cc2)no1)Cc1nccn1C	2%	4.0	-0.5%	0.0	4	6	/
CC(C)CN1C(=O)C(=O)N(CC(=O)N(C)CC(=O)Nc2ccc(Cl)c(C(F)(F)F)c2)C1=O	/	/	2.8%	1.4	-12	-2	-1.3%
O=C1OC(/C=C/c2ccc(Cl)cc2)=NC/1=C/c1ccco1	-3%	?	0.4%	-1.2	5	13	0.3%

Three entries out of the list above, sorted by the value under TRPML1 inh, smallest number first.
molecule | Sfp PPTase inh | Menin MLL FP FL | TRPML1 inh
Cc1cccc(NC(=O)C2CCN(S(=O)(=O)c3ccc4c(c3)OCCCO4)CC2)n1 | / | / | -12
O=C1OC(/C=C/c2ccc(Cl)cc2)=NC/1=C/c1ccco1 | -3% | ? | 5
Cc1c(CCC(=O)N[C@@H](CCCNC(N)=O)C(=O)O)c(=O)oc2cc3oc4c(c3cc12)CCCC4 | 1% | 1.7 | 31
